From PubChem BioAssay
Vaccinia inh = blocks a specific stage of Vaccinia orthopoxvirus infection, primary screen, cell-based, single point; Vaccinia-infected cells, mCherry/Venus stage reporter fluorescence; hits give low values; some inactives read as strong as hits; activity change (mCherry), % (concentration not given with the values); 89,000 tested, 0.01% active; AID 1053133, 2014;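 active = mCherry past -33% and 40 or more points under the early reporter, replicates agreeing; inconclusive = past -33% without that gap or agreement; tested in A549 cells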;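 also: scaled between vehicle wells and reference inhibitor wells; 23 nL library stock went into each well; one replicate is shown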
Vaccinia inh Venus = also measured in Vaccinia inh; calls as there; activity change (Venus), %; measured here: Venus reporter, other viral stage;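 negative = less Venus signal; first of two replicates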
Numbers without * were called inactive; ? = inconclusive; . = no result given.

molecule	Vaccinia inh	Vaccinia inh Venus
CC(C)(C)S(=O)N1Cc2cc(C(=O)NCCCN3CCOCC3)nc(-c3cccc(-c4cccc(F)c4)c3)c2[C@@H]1CCO (stereo partly specified)	?	.
COc1cccc(S(=O)(=O)N[C@@H]2CC[C@H](CCNC(=O)Cc3ccncc3)O[C@@H]2CO)c1	7	7
CN1CCCCN2[C@@H](CO)[C@@H](c3ccc(C#Cc4ccccc4F)cc3)[C@@H]2C1	?	.
C[C@H](CO)N1C[C@H](C)[C@H](CN(C)C)Oc2ccc(NC(=O)Nc3ccc(C(F)(F)F)cc3)cc2CC1=O	-28	-25
O=S(=O)(NCC[C@H]1CC[C@H](NS(=O)(=O)c2cccc(F)c2)[C@H](CO)O1)c1cccc(F)c1	-7	-13
Cc1noc(C)c1NC(=O)N(C)C[C@@H]1OCCCC[C@H](C)Oc2ccc(NS(=O)(=O)c3ccccc3)cc2C(=O)N([C@@H](C)CO)C[C@@H]1C	21	7
C[C@H]1CN([C@@H](C)CO)C(=O)c2cc(Br)cnc2O[C@H]1CN(C)C(=O)c1ccc2c(c1)OCO2	16	9
CN1C(=O)c2cc(NC(=O)c3ccccc3)ccc2OC[C@@H]2O[C@@H](CC(=O)NCC3CC3)CC[C@H]21	4	6
CCS(=O)(=O)N[C@@H]1CC[C@@H](CC(=O)NCC2CC2)O[C@H]1CO	0	-2
Cc1noc(C)c1NC(=O)Nc1cccc2c1O[C@H](CN(C)C(=O)Nc1ccc3c(c1)OCO3)[C@H](C)CN([C@@H](C)CO)C2=O	14	9
C[C@@H]1CN([C@H](C)CO)C(=O)c2cccc(NS(=O)(=O)c3ccc(F)cc3)c2O[C@@H]1CN(C)CC1CC1	20	23
C[C@H](NC(=O)C[C@H]1CC[C@H]2[C@@H](COC[C@H](O)CN2C(=O)Nc2ccccc2)O1)c1ccccc1	-9	-15
CNC(=O)C[C@@H]1CC[C@H]2[C@@H](COc3ccc(NC(=O)Nc4cccc(Cl)c4)cc3C(=O)N2C)O1	8	-1
C[C@@H]1CN([C@@H](C)CO)C(=O)Cc2cc(NC(=O)CCN3CCOCC3)ccc2O[C@H]1CN(C)C(=O)NC1CCCCC1	-8	5
OC[C@H]1Nc2ccc(-c3cccc(F)c3)cc2[C@@H]2[C@H]1CCN2Cc1ccncc1	-13	-2
C[C@@H]1CN([C@@H](C)CO)C(=O)c2cc(NC(=O)Nc3cccc4ccccc34)ccc2O[C@H]1CN(C)S(C)(=O)=O	1	3
CO[C@H]1CN(C)C(=O)c2cc(NC(=O)Nc3ccc4c(c3)OCO4)ccc2OC[C@@H](C)NC[C@@H]1C	3	15
CC(C)NC(=O)Nc1ccc2c(c1)CC(=O)N([C@@H](C)CO)C[C@H](C)[C@H](CN(C)C)O2	10	5
O=C(Cc1ccccn1)N1CCCCN2[C@H](CO)[C@H](c3ccc(-c4ccccc4F)cc3)[C@H]2C1	-28	-34
COc1ccccc1S(=O)(=O)N[C@H]1CC[C@@H](CCNC(=O)C2CCOCC2)O[C@H]1CO	7	2
COCC(=O)N1CC[C@@H]2[C@H]1c1cc(C#Cc3ccccc3)ccc1N[C@@H]2CO	-9	1
C[C@H]1CN([C@@H](C)CO)C(=O)c2c(c3ccccc3n2C)-c2ccccc2CO[C@H]1CN(C)Cc1cccc(C(F)(F)F)c1	?	.
O=C(Cc1ccccc1)N1CC(=O)N2[C@H](CO)[C@@H](c3ccc(-c4ccccc4)cc3)[C@@H]2C1	?	.
C/C=C/c1ccc2c(c1)O[C@H](CN(C)C(=O)c1ccncc1)[C@@H](C)CN([C@H](C)CO)S2(=O)=O	-3	6
CCNC(=O)C[C@H]1CC[C@@H]2[C@@H](COc3ccc(NC(=O)NC(C)C)cc3C(=O)N2C)O1	-4	-2

Full records, looked up by structure.
Shown for C[C@H]1CN([C@@H](C)CO)C(=O)c2cc(Br)cnc2O[C@H]1CN(C)C(=O)c1ccc2c(c1)OCO2 : Vaccinia inh: 16; Vaccinia inh Venus: 9
Shown for COc1cccc(S(=O)(=O)N[C@@H]2CC[C@H](CCNC(=O)Cc3ccncc3)O[C@@H]2CO)c1 : Vaccinia inh: 7; Vaccinia inh Venus: 7

(continued)
molecule	Vaccinia inh	Vaccinia inh Venus
CCCNC(=O)C[C@@H]1CC[C@@H]2[C@@H](COc3ccc(NC(=O)Cc4ccccc4)cc3C(=O)N2C)O1	3	2
CO[C@@H]1CN(C)C(=O)c2cc(NC(=O)c3ccccc3F)ccc2OC[C@H](C)N(CC2CC2)C[C@@H]1C	0	0
CN(C)C(=O)C[C@H]1CC[C@@H]2[C@@H](COc3ccc(NC(=O)C4CC4)cc3C(=O)N2C)O1	14	10
COc1ccc(C#Cc2ccc([C@H]3[C@H]4CN(C(=O)Nc5ccccc5F)CC(=O)N4[C@H]3CO)cc2)cc1	?	.
N#Cc1ccc(-c2ccc([C@@H]3[C@H]4CN(S(=O)(=O)c5ccccc5)CCCCN4[C@H]3CO)cc2)cc1	12	12
CC(C)[C@@H]1C=C(C(=O)O)O[C@H](OCc2ccc(CO)cc2)C1	9	5
CCCC(=O)Nc1ccc2c(c1)OC[C@H](C)N(C(=O)CC1CC1)C[C@@H](C)[C@@H](OC)CN(C)C2=O	17	9
O=C(C[C@H]1C[C@H]2c3cc(NS(=O)(=O)c4ccc(F)cc4)ccc3O[C@H]2[C@@H](CO)O1)N1CCc2ccccc2C1	-17	-14
O=C(C1=C[C@@H](c2coc3ccccc3c2=O)C[C@@H](OCCCCO)O1)N1CCCCCCC1	7	-7
COc1ccc([Si](C)(C)[C@H]2[C@H](CCO)O[C@@]3(C(=O)N(Cc4cccc(N5CCCCC5=O)c4)c4ccccc43)[C@@H]2C)cc1	?	.
COc1ccc(NC(=O)Nc2cccc3c2O[C@@H](CN(C)C)[C@@H](C)CN([C@H](C)CO)C3=O)cc1	10	6
COc1ccc(S(=O)(=O)Nc2ccc3c(c2)C(=O)N([C@@H](C)CO)C[C@@H](C)[C@@H](CN(C)CC2CCCCC2)O3)cc1	-8	-4
COC(=O)C(CC#Cc1ccc2c(c1)[C@]1(C(=O)N2)[C@H](c2ccc(O)cc2)N2[C@H](c3ccccc3)[C@H](c3ccccc3)OC(=O)[C@H]2[C@@H]1C(=O)N1CCc2cc(OC)c(OC)cc2C1)C(=O)OC	13	4
CCC(=O)Nc1ccc2c(c1)C(=O)N(C)C[C@H](OC)[C@H](C)CN(C(=O)c1cccnc1)[C@@H](C)CO2	13	8
O=C(N[C@@H]1CC[C@H](CCn2cc(-c3cccnc3)nn2)O[C@@H]1CO)c1ccccc1F	-1	4
C[C@@H]1CN([C@H](C)CO)S(=O)(=O)c2ccc(-c3cncnc3)cc2O[C@@H]1CN(C)Cc1ccccc1	1	-7
COc1ccc(NC(=O)N(C)C[C@H]2Oc3c(NS(=O)(=O)c4ccc(OC)cc4)cccc3C(=O)N([C@@H](C)CO)C[C@@H]2C)cc1	7	7
C[C@@H]1CN([C@H](C)CO)S(=O)(=O)c2ccc(Br)cc2O[C@H]1CN(C)C	23	5
Cc1ccccc1S(=O)(=O)N1C[C@H](O)COC[C@H]2O[C@@H](CC(=O)N3CCN(C)CC3)CC[C@@H]21	-5	-9
Cc1ccc(S(=O)(=O)Nc2ccc3c(c2)C(=O)N([C@@H](C)CO)C[C@H](C)[C@@H](CN(C)CC2CCCCC2)OCCCC[C@H](C)O3)cc1	?	.
C[C@@H]1CN([C@@H](C)CO)C(=O)CCCn2cc(nn2)CO[C@H]1CN(C)C(=O)Nc1cccc(Oc2ccccn2)c1	11	15
C[C@@H]1CN([C@H](C)CO)C(=O)Cc2cc(NS(=O)(=O)c3cccs3)ccc2O[C@@H]1CN(C)Cc1ccccc1	-2	-4
C[C@H]1CN([C@@H](C)CO)C(=O)c2cccc(NC(=O)Nc3ccc(F)cc3)c2O[C@H]1CN(C)S(=O)(=O)c1ccc(F)cc1	?	.
Cc1noc(C)c1NC(=O)Nc1ccc2c(c1)CC(=O)N([C@H](C)CO)C[C@@H](C)[C@H](CN(C)Cc1ccc3c(c1)OCO3)O2	7	1
O=C(C[C@H]1C[C@H]2c3cc(NC(=O)CC4CC4)ccc3O[C@H]2[C@@H](CO)O1)NCc1ccc2c(c1)OCO2	-3	-7
CN1c2ccc(-c3cccc(C#N)c3)cc2[C@@H]2[C@@H](CCN2C(=O)Cc2ccccn2)[C@@H]1CO	7	6
O=C(C[C@H]1CC[C@H]2[C@@H](COC[C@@H](O)CN2C(=O)Nc2ccccc2)O1)NCCc1ccncc1	0	4
CS(=O)(=O)N1CCCCN2[C@@H](CO)[C@@H](c3ccc(-c4cccc(C#N)c4)cc3)[C@@H]2C1	3	1
Cc1noc(C)c1S(=O)(=O)Nc1cccc2c1O[C@H](CN(C)CC1CCCCC1)[C@H](C)CN([C@H](C)CO)C2=O	4	5
Cc1ccccc1-c1ccc2c(c1)O[C@@H](CN(C)C(=O)Nc1ccc(F)cc1)[C@@H](C)CN([C@@H](C)CO)S2(=O)=O	?	.
COc1ccccc1-c1ccc2n(c1=O)C[C@@H]1[C@@H](CO)[C@H](C(=O)NCCCN(C)C)N(C(C)=O)[C@H]21	9	9
CNC[C@@H]1Oc2c(NC(=O)Nc3ccccc3)cccc2C(=O)N([C@H](C)CO)C[C@H]1C	19	8
CCNC(=O)C[C@H]1CC[C@H](NC(=O)C2CCOCC2)[C@@H](CO)O1	4	2
C[C@H](CO)N1C[C@H](C)[C@H](CN(C)C(=O)NC2CCCCC2)Oc2c(NC(=O)C3CC3)cccc2C1=O	8	10
O=C(C[C@H]1CC[C@H](NC(=O)C2CCC2)[C@@H](CO)O1)NCC1CC1	6	-4
C[C@H](CO)N1C[C@H](C)[C@@H](CN(C)S(=O)(=O)c2cn(C)cn2)Oc2ccc(N(C)C)cc2C1=O	-3	-8
C/C=C/c1ccc2c(c1)O[C@H](CN(C)C(=O)NC(C)C)[C@H](C)CN([C@@H](C)CO)S2(=O)=O	-5	-4
C[C@@H]1CN([C@H](C)CO)C(=O)c2cccc(NC(=O)Nc3ccc(F)cc3)c2O[C@H]1CN(C)Cc1ccc(C(=O)Nc2ccccc2N)cc1	17	10
CO[C@@H]1CN(C)C(=O)c2ccc(NC(=O)c3ccccc3F)cc2OC[C@H](C)N(C(=O)c2ccccc2F)C[C@H]1C	2	2
O=C(Nc1ccccc1)C1=C[C@@H](c2ccc3c(c2)OCO3)C[C@@H](OCCCCO)O1	7	15
CO[C@@H]1CN(C)C(=O)c2ccc(NC(C)=O)cc2OC[C@@H](C)N(Cc2cccnc2)C[C@H]1C	12	14
C[C@@H]1CCCCO[C@H](CN(C)C)[C@@H](C)CN([C@H](C)CO)C(=O)c2cc(NS(=O)(=O)c3ccc(F)cc3)ccc2O1	2	4
Cc1ccc(S(=O)(=O)Nc2ccc3c(c2)CC(=O)N([C@@H](C)CO)C[C@@H](C)[C@@H](CN(C)Cc2ccc(-c4ccccc4)cc2)O3)cc1	?	.
O=C(C1CCCCC1)N1C[C@H]2[C@@H](c3ccccc31)[C@@H](CO)N2CC1CCOCC1	15	10
CO[C@H]1CN(C)C(=O)c2cc(NC(=O)c3ccccc3)ccc2OC[C@H](C)N(C(=O)CN(C)C)C[C@H]1C	1	-1
CO[C@@H]1CN(C)C(=O)c2cc(NC(=O)Nc3c(C)noc3C)ccc2OC[C@H](C)N(C)C[C@@H]1C	8	3
C[C@H](CO)N1C[C@H](C)[C@H](CN(C)S(=O)(=O)c2ccc(Cl)cc2)Oc2c(NC(=O)Nc3ccc(F)cc3)cccc2C1=O	?	.
C[C@@H]1CN([C@@H](C)CO)C(=O)Cc2cc(NC(=O)Cc3cn(C)c4ccccc34)ccc2O[C@H]1CN(C)Cc1ccc(C(=O)Nc2ccccc2N)cc1	-5	-2
Cc1ccc(S(=O)(=O)N(C)C[C@@H]2OCCCC[C@@H](C)Oc3ccc(NC(=O)NC(C)C)cc3C(=O)N([C@@H](C)CO)C[C@H]2C)cc1	-6	-5
Cc1ccc(S(=O)(=O)N(C)C[C@H]2Oc3ccc(NC(=O)Cc4cn(C)c5ccccc45)cc3C(=O)N([C@H](C)CO)C[C@@H]2C)cc1	-8	8
C[C@@H]1CN([C@@H](C)CO)S(=O)(=O)c2ccc(C#Cc3ccccc3F)cc2O[C@@H]1CN(C)CC1CC1	-23	-24
CO[C@H]1CN(C)C(=O)c2cc(NS(=O)(=O)c3ccccc3)ccc2OC[C@@H](C)NC[C@@H]1C	16	6

Grouped by structure, the entries above with an aryl methoxy group (nine)
molecule	Vaccinia inh	Vaccinia inh Venus
COc1cccc(S(=O)(=O)N[C@@H]2CC[C@H](CCNC(=O)Cc3ccncc3)O[C@@H]2CO)c1	7	7
COc1ccccc1S(=O)(=O)N[C@H]1CC[C@@H](CCNC(=O)C2CCOCC2)O[C@H]1CO	7	2
COc1ccc(C#Cc2ccc([C@H]3[C@H]4CN(C(=O)Nc5ccccc5F)CC(=O)N4[C@H]3CO)cc2)cc1	?	.
COc1ccc([Si](C)(C)[C@H]2[C@H](CCO)O[C@@]3(C(=O)N(Cc4cccc(N5CCCCC5=O)c4)c4ccccc43)[C@@H]2C)cc1	?	.
COc1ccc(NC(=O)Nc2cccc3c2O[C@@H](CN(C)C)[C@@H](C)CN([C@H](C)CO)C3=O)cc1	10	6
COc1ccc(S(=O)(=O)Nc2ccc3c(c2)C(=O)N([C@@H](C)CO)C[C@@H](C)[C@@H](CN(C)CC2CCCCC2)O3)cc1	-8	-4
COC(=O)C(CC#Cc1ccc2c(c1)[C@]1(C(=O)N2)[C@H](c2ccc(O)cc2)N2[C@H](c3ccccc3)[C@H](c3ccccc3)OC(=O)[C@H]2[C@@H]1C(=O)N1CCc2cc(OC)c(OC)cc2C1)C(=O)OC	13	4
COc1ccc(NC(=O)N(C)C[C@H]2Oc3c(NS(=O)(=O)c4ccc(OC)cc4)cccc3C(=O)N([C@@H](C)CO)C[C@@H]2C)cc1	7	7
COc1ccccc1-c1ccc2n(c1=O)C[C@@H]1[C@@H](CO)[C@H](C(=O)NCCCN(C)C)N(C(C)=O)[C@H]21	9	9

Some of the compounds tested; the hit share may differ from the screen's.
